# Ecoli rRNA inh = selective bacterial rRNA inhibition in E. coli; 1.6% of 350,000 active; E. coli WT GFP vs humanized-ribosome RFP mutants, fluorescence, 24 h; hits give low values; DMSO median 0, no signal -100; GFP signal change (wild-type ribosome), % (no concentration beside the values);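 active means significant combined selectivity score with lowered wild-type GFP, culture density cut under 30%, mutant RFP and density less affected; inactive means any of these conditions unmet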; further: one replicate is shown; some compounds called inactive have numbers as strong as hits
# MLL AF4-AF9 inh = MLL-AF4/AF9 protein interaction inhibition | AlphaScreen, biotin-AF4 peptide binding to FLAG-AF9 | inhibition, % at 10 µM | 0.47% of 350,000 active | AID 651704;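 active means every replicate reaching a set inhibition limit, whatever the replicate mean, cut at about 25% in these data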;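 further: 0% = plate neutral control median and 100% = total signal loss; the record names both 10 and 1 µM as test concentration; the first replicate is given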
# Target sequence (P42568 whole entry, looked up): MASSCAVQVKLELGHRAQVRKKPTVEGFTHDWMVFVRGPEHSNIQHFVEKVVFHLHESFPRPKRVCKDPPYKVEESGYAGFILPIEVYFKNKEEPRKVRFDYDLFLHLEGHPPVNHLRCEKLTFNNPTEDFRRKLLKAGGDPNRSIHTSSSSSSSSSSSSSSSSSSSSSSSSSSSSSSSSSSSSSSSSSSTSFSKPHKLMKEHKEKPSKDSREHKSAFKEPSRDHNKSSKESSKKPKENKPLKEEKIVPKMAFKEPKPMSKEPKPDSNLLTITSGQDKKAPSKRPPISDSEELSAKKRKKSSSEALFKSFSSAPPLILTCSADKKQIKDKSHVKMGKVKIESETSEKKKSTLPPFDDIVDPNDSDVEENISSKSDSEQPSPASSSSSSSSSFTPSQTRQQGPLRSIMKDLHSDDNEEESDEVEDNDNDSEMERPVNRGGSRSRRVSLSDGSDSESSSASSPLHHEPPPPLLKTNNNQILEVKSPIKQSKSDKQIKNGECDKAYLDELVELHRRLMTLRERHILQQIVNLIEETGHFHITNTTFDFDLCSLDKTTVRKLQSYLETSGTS
# Ecoli rRNA inh OD600 = recorded beside Ecoli rRNA inh, whose call it bears; OD600 change, %; measured here: OD600 growth;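 optical density of the mix in the first replicate; 0 = DMSO median and -100 = no signal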
# Ecoli rRNA inh RFP = recorded beside Ecoli rRNA inh, whose call it bears; RFP signal change, %; measured here: RFP humanized mutant strains;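 first replicate; 0 = DMSO median and -100 = no signal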
# The depositor's hits bear a star; & = joins results of further samples. An excerpt, so the mix of outcomes need not match the whole.
# Short keys: A = Ecoli rRNA inh; B = Ecoli rRNA inh OD600; C = Ecoli rRNA inh RFP; D = MLL AF4-AF9 inh
CO[C@H]1CN(C)C(=O)c2cc(NC(=O)Nc3cc(F)ccc3F)ccc2OC[C@H](C)N(C(=O)c2ccccn2)C[C@H]1C
  A = -3.8; B = -6.8; C = 2.5; D = 1.3

CCNC(=O)Nc1ccc2c(c1)C(=O)N(C)[C@H]1CC[C@@H](CC(=O)NCCOC)O[C@H]1CO2
  A = 1.4; B = -1.0; C = -1.7; D = -0.8

C[C@@H]1CN([C@@H](C)CO)C(=O)c2cc(NS(=O)(=O)c3ccc(Cl)cc3)ccc2O[C@@H](C)CCCCO[C@H]1CN(C)S(=O)(=O)c1ccc(F)cc1
  A = -1.1; B = 8.6; C = -2.5; D = -1.3

Cc1ccc(S(=O)(=O)N(C)C[C@H]2Oc3ccc(NC(=O)C4CC4)cc3C(=O)N([C@@H](C)CO)C[C@H]2C)cc1
  A = 2.3; B = 6.2; C = 3.2; D = -0.3

O=C(O)[C@H]1[C@H](CO)[C@H]2Cn3c(ccc(-c4ccc(F)cc4)c3=O)[C@H]2N1CCc1ccccc1
  A = 1.1; B = -4.3; C = -0.5; D = -1.0

CN(C)CC(=O)N1CC2(C1)[C@H](c1ccccc1)[C@H](CO)N2C(=O)C1CCC1
  A = 0.0; B = 10.5; C = -1.9; D = -1.6

CC=Cc1ccc2n(c1=O)C[C@@H]1[C@@H](CO)[C@H](C(=O)N(C)C)[C@H]2N1CC1CCCC1 (mixture of isomers)
  A = 2.4; B = 8.1; C = -1.9; D = -1.5

CCCC#Cc1ccc([C@H]2[C@@H](CO)N(C(C)=O)[C@H]2CNC(=O)C2CCCC2)cc1
  A = 1.0; B = 1.5; C = 4.9; D = -3.5

CC(=O)N1CC(=O)N2[C@H](CO)[C@@H](c3ccc(-c4ccc(C(=O)N(C)C)cc4)cc3)[C@@H]2C1
  A = 4.0; B = -1.4; C = 0.9; D = -10.0

C[C@@H]1CN([C@@H](C)CO)C(=O)c2cc(C#Cc3cccnc3)cnc2O[C@H]1CN(C)Cc1cccnc1
  A = -0.7; B = -6.2; C = 0.9; D = -3.3

# Record cards, from the list above.
# `CN(C)CC(=O)N1CC2(C1)[C@H](c1ccccc1)[C@H](CO)N2C(=O)C1CCC1` in the list: Ecoli rRNA inh: 0.0; Ecoli rRNA inh OD600: 10.5; Ecoli rRNA inh RFP: -1.9; MLL AF4-AF9 inh: -1.6
# `Cc1ccc(S(=O)(=O)N(C)C[C@H]2Oc3ccc(NC(=O)C4CC4)cc3C(=O)N([C@@H](C)CO)C[C@H]2C)cc1` in the list: Ecoli rRNA inh: 2.3; Ecoli rRNA inh OD600: 6.2; Ecoli rRNA inh RFP: 3.2; MLL AF4-AF9 inh: -0.3

# The listing continues.
# Short keys: A = Ecoli rRNA inh; B = Ecoli rRNA inh OD600; C = Ecoli rRNA inh RFP; D = MLL AF4-AF9 inh
O=C(C1CCC1)N1CC(=O)N2[C@H](CO)[C@H](c3ccc(C#CCc4ccccc4)cc3)[C@H]2C1
  A = 4.4; B = -1.0; C = -1.6; D = -3.0

CCS(=O)(=O)N1CC2(CN(Cc3ccccc3OC)[C@H](CO)c3c2c2ccc(OC)cc2n3C)C1
  A = -4.9; B = -3.0; C = 0.0; D = 1.1

O=C(c1ccccc1F)N1CC(=O)N2[C@H](CO)[C@H](c3ccc(C#Cc4ccc(F)cc4)cc3)[C@H]2C1
  A = -51.3; B = -67.2; C = -8.9; D = -4.0

C/C=C/c1ccc(C2[C@H]3CNC[C@@H]2N3C(=O)NC(C)C)cc1 (stereo partly specified)
  A = 6.5; B = 17.4; C = -2.9; D = -2.0

COc1cccc(-c2ccc(C3[C@H]4CNC[C@@H]3N4C(=O)NC3CCCCC3)cc2)c1 (stereo partly specified)
  A = -10.6&-54.8; B = -9.3&-76.8; C = 1.0&-10.4; D = 8.7&8.4

C[C@@H]1CN([C@H](C)CO)C(=O)c2cc(NC(=O)CCCN(C)C)ccc2O[C@@H](C)CCCCO[C@H]1CN(C)C(=O)Nc1ccccc1
  A = 2.1; B = 3.8; C = -0.7; D = -1.3

COc1ccc(NC(=O)N2CC(=O)N3[C@H](CO)[C@H](c4ccc(-c5ccc(C)cc5)cc4)[C@@H]3C2)cc1
  A = -1.0; B = -36.0; C = 29.4; D = 1.8

COCC(=O)N1CC(=O)N2[C@@H](CO)[C@H](c3ccc(C#CC4CCCC4)cc3)[C@@H]2C1
  A = 5.5; B = 10.6; C = -1.2; D = -0.8

COc1ccc(CN(C)C[C@H]2Oc3ccc(NS(=O)(=O)c4ccc(OC)cc4)cc3CC(=O)N([C@H](C)CO)C[C@@H]2C)cc1
  A = -1.7; B = 2.6; C = 2.8; D = 4.5

CCCNC(=O)C[C@H]1C[C@H]2c3cc(NC(=O)C4CCC4)ccc3O[C@H]2[C@@H](CO)O1
  A = -2.5; B = 4.5; C = -1.1; D = -1.6

# Pulled one by one from above, five records:
# Short keys: A = Ecoli rRNA inh; B = Ecoli rRNA inh OD600; C = Ecoli rRNA inh RFP; D = MLL AF4-AF9 inh
Cc1ccc(S(=O)(=O)N(C)C[C@H]2Oc3ccc(NC(=O)C4CC4)cc3C(=O)N([C@@H](C)CO)C[C@H]2C)cc1
  A = 2.3; B = 6.2; C = 3.2; D = -0.3

C[C@@H]1CN([C@@H](C)CO)C(=O)c2cc(NS(=O)(=O)c3ccc(Cl)cc3)ccc2O[C@@H](C)CCCCO[C@H]1CN(C)S(=O)(=O)c1ccc(F)cc1
  A = -1.1; B = 8.6; C = -2.5; D = -1.3

COc1ccc(CN(C)C[C@H]2Oc3ccc(NS(=O)(=O)c4ccc(OC)cc4)cc3CC(=O)N([C@H](C)CO)C[C@@H]2C)cc1
  A = -1.7; B = 2.6; C = 2.8; D = 4.5

O=C(c1ccccc1F)N1CC(=O)N2[C@H](CO)[C@H](c3ccc(C#Cc4ccc(F)cc4)cc3)[C@H]2C1
  A = -51.3; B = -67.2; C = -8.9; D = -4.0

C[C@@H]1CN([C@@H](C)CO)C(=O)c2cc(C#Cc3cccnc3)cnc2O[C@H]1CN(C)Cc1cccnc1
  A = -0.7; B = -6.2; C = 0.9; D = -3.3

# The results go on:
# Short keys: A = Ecoli rRNA inh; B = Ecoli rRNA inh OD600; C = Ecoli rRNA inh RFP; D = MLL AF4-AF9 inh
O=C(C1CCOCC1)N1[C@H](CO)[C@H](c2ccccc2)C12CN(Cc1cncnc1)C2
  A = 3.2; B = 15.5; C = -0.2; D = -3.4

N#C[C@@H]1[C@@H](c2ccccc2C2=CCCC2)[C@@H](CO)N1C(=O)NC1CCCCC1
  A = -21.2; B = -63.0; C = 3.3; D = 0.2

O=C(C[C@@H]1CC[C@H]2[C@@H](COC[C@@H](O)CN2CC2CCCC2)O1)NCC1CC1
  A = -3.4; B = 1.3; C = -0.6; D = -4.8

Cc1ccc(-c2ccc([C@H]3[C@@H](CO)N4C(=O)CN(C(=O)Nc5cccc(F)c5)C[C@H]34)cc2)cc1
  A = -39.6; B = -65.4; C = 7.2; D = -5.6

CCC(=O)N1CC(=O)N2[C@H](CO)[C@@H](c3ccc(C#CCc4ccccc4)cc3)[C@@H]2C1
  A = -4.3; B = -3.4; C = -0.4; D = -2.8

CCC(=O)N1CC[C@@H]2[C@@H](CO)Nc3ccc(C#Cc4ccccc4F)cc3[C@@H]21
  A = 7.1; B = 11.4; C = -2.2; D = -0.4

COc1ccccc1C#Cc1ccc([C@@H]2[C@H](C#N)N(C(=O)C3CCCCC3)[C@H]2CO)cc1
  A = 1.6; B = -1.8; C = 0.5; D = -2.8

COc1ccc(C#Cc2ccc3c(c2)[C@H]2[C@H](CCN2C(=O)c2ccncc2)[C@@H](CO)N3)cc1
  A = 3.2; B = -0.7; C = -3.1; D = 33.7*

O=C(NC1CCCC1)[C@H]1[C@H](CO)[C@H]2Cn3c(cccc3=O)[C@H]2N1CCc1ccccc1
  A = -1.9; B = 12.1; C = 2.5; D = -3.0

Cc1noc(C)c1NC(=O)Nc1ccc2c(c1)CC(=O)N([C@@H](C)CO)C[C@H](C)[C@@H](CN(C)Cc1ccc(C(=O)Nc3ccccc3N)cc1)O2
  A = 3.1; B = -1.1; C = -3.0; D = 0.1

C[C@H](NC(=O)C[C@H]1C[C@H]2c3cc(NC(=O)C4CCC4)ccc3O[C@H]2[C@H](CO)O1)c1ccccc1
  A = 2.8; B = 5.8; C = -1.8; D = 1.3

O=C(O)C[C@H]1C[C@@H]2c3cc(NC(=O)Nc4ccc(C(F)(F)F)cc4)ccc3O[C@@H]2[C@H](CO)O1
  A = -2.7; B = 0.6; C = -2.0; D = -5.2

C[C@@H]1CN([C@H](C)CO)C(=O)c2cc(NC(=O)NC3CCCCC3)ccc2O[C@H]1CN(C)C(=O)Nc1ccc(F)cc1
  A = -3.3; B = 1.0; C = -0.5; D = 0.1

Cc1ccccc1-c1ccc([C@H]2[C@H]3CN(C(=O)Nc4cccc(F)c4)CC(=O)N3[C@H]2CO)cc1
  A = -11.2; B = -43.9; C = 8.8; D = 2.4

O=C(C1CC1)N1CC(=O)N2[C@H](C1)[C@H](c1ccc(C#Cc3cccc(F)c3)cc1)[C@@H]2CO
  A = -13.1; B = -61.7; C = 23.9; D = -3.5

CCCN(C)C[C@H]1OCCCC[C@@H](C)Oc2ccc(N(C)C)cc2C(=O)N([C@H](C)CO)C[C@H]1C
  A = -1.8; B = -0.7; C = -4.8; D = 19.1

CN(C)C(=O)c1ccc(-c2ccc(C3[C@H]4CNC[C@@H]3N4S(=O)(=O)c3ccccc3F)cc2)cc1 (stereo partly specified)
  A = -0.8; B = -3.2; C = -1.6; D = 6.1

COc1ccc(C(=O)N2C[C@@H]3[C@H](c4ccccc42)[C@@H](CO)N3C(=O)c2ccc(F)cc2)cc1
  A = 0.5; B = 11.0; C = -2.3; D = -16.2

CCNC(=O)[C@H]1[C@H](CO)[C@H]2Cn3c(ccc(-c4ccccc4)c3=O)[C@@H]1N2C(=O)CC1CC1
  A = 0.6; B = 5.5; C = -1.1; D = -0.4

O=C(C[C@H]1C[C@@H]2c3cc(NC(=O)NC4CCCC4)ccc3O[C@@H]2[C@@H](CO)O1)NCc1cccnc1
  A = 5.0; B = 1.3; C = -1.9; D = -4.3

Cc1noc(C)c1NC(=O)N(C)C[C@@H]1OCCCC[C@@H](C)Oc2ccc(NS(=O)(=O)c3ccc(Cl)cc3)cc2C(=O)N([C@@H](C)CO)C[C@H]1C
  A = 0.8; B = -3.8; C = 1.6; D = -17.1

CN1[C@@H]2Cn3c(ccc(-c4ccc(F)cc4)c3=O)[C@H]1[C@@H](C(=O)NC1CCCC1)[C@@H]2CO
  A = -0.8; B = -0.8; C = -0.1; D = -1.6

CN1C(=O)c2cc(NS(=O)(=O)c3cccc(F)c3)ccc2OC[C@@H]2O[C@H](CC(=O)NCCN3CCCCC3)CC[C@H]21
  A = 1.4; B = 15.2; C = 1.7; D = -0.6

CCN1[C@H](C(=O)N(C)C)[C@@H](CO)[C@@H]2Cn3c(ccc(C4=CCCCC4)c3=O)[C@@H]21
  A = -1.7; B = -0.4; C = -2.0; D = -0.2

O=C(Nc1ccc2c(c1)[C@H]1C[C@@H](CC(=O)N3CCOCC3)O[C@H](CO)[C@H]1O2)NC1CCCC1
  A = -1.0; B = 0.1; C = -2.8; D = 3.2

CN(C)CC(=O)N1CC(=O)N2[C@@H](CO)[C@H](c3ccc(/C=C/c4ccccc4)cc3)[C@@H]2C1
  A = 5.6; B = 8.2; C = 0.5; D = 16.1

C[C@H]1CCCCO[C@H](CN(C)C(=O)Nc2ccccc2)[C@@H](C)CN([C@@H](C)CO)C(=O)c2cc(NC(=O)Nc3cccc4ccccc34)ccc2O1
  A = 1.4; B = 11.2; C = -1.2; D = 1.8

O=C(CN1CCOCC1)N1CC(=O)N2[C@H](C1)[C@H](c1ccc(-c3cccc(F)c3)cc1)[C@@H]2CO
  A = 4.5; B = -4.1; C = -1.1; D = 1.1

CN(C)C(=O)C[C@@H]1C=C[C@@H](NC(=O)C2CCOCC2)[C@@H](CO)O1
  A = 3.0; B = -3.9; C = 0.3; D = -4.0

CC(=O)Nc1ccc2c(c1)C(=O)N(C)[C@@H]1CC[C@@H](CC(=O)NCCCN3CCOCC3)O[C@H]1CO2
  A = 0.9; B = 5.6; C = -1.3; D = -2.2

COc1ccc2c3c([nH]c2c1)[C@H](CO)N(C(=O)C1CCCCC1)CC31CN(Cc2nccs2)C1
  A = -4.7; B = -11.7; C = 0.0; D = 10.5

CC(C)NC(=O)N(C)C[C@@H]1OCCCC[C@@H](C)Oc2ccc(NC(=O)Nc3ccc4c(c3)OCO4)cc2C(=O)N([C@@H](C)CO)C[C@@H]1C
  A = 2.6; B = 8.7; C = -1.6; D = -0.3

O=C(Cc1ccccc1)N1CC(=O)N2[C@H](CO)[C@H](c3ccc(C#CCc4ccccc4)cc3)[C@H]2C1
  A = -50.5; B = -58.3; C = 0.4; D = -1.4

COc1cccc(-c2ccc([C@H]3[C@H](CO)N4C(=O)CN(C(=O)C5CCCCC5)C[C@@H]34)cc2)c1
  A = -3.5; B = -16.0; C = 11.7; D = -0.1

# From PubChem BioAssay
